GLS inh: qHTS for Inhibitors of Glutaminase (GLS); GLS enzymatic activity, qHTS titration; Potency, µM (titrated, usually from 45.5 µM), for the others: top-dose activity change, negative = inhibition, usual class: inhibitors; actives 0.21% (n = 410,000); note: % is set by controls: 0 for no effect and ±100 for the full control effect
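hKGA in 45 mM KH2PO4 (pH 8.2), 0.02% Tween-20 with compound, then 1mM L-Glutamine (stock as added) plus glutamate oxidase/HRP/Amplex red coupling mix. Fluorescence read initially and after 30 min at RT; signal change reflects glutamate formation.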
ALOX12 inh: Primary qHTS assay for inhibitors of human arachidonate 12S-lipoxygenase (ALOX12): Round 2 | purified 12hLO, xylenol orange hydroperoxide absorbance | Potency, µM (doses to about 108 µM), for the others: at the top dose activity change, negative = inhibition, hits mostly inhibitors | actives 1.1% (n = 580,000) | AID 1671190, 2021; note: % is set by controls: 0 for no effect and ±100 for the full control effect
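Purified human 12hLO at 150 nM in 25 mM Hepes, 0.01% Triton X-100, pH 7.0, preincubated 15 min at room temperature with compound. Reaction started with 40 uM arachidonic acid, 30 min at room temperature. Hydroperoxide measured by Fe-xylenol orange, 573/405 nm absorbance ratio.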
Tb PGK inh: qHTS Assay to Find Inhibitors of Phosphoglycerate Kinase; actives 0.043% (n = 380,000); Potency, µM (top dose mostly 57.5 µM), for inactives: top-dose activity change, negative = inhibition, usual class: inhibitors; Phosphoglycerate kinase, glycosomal (Trypanosoma brucei brucei), P07378; PGK/GAPDH coupled, Kinase-Glo luminescence, 60 min; note: % is set by controls: 0 for no effect and ±100 for the full control effect; nearly all actives have a fitted effect of over 60% in size
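Recombinant glycosomal PGK reaction used 1,3-bisphosphoglycerate generated in-well by GAPDH (100nM final) in 100mM TEA pH 7.6, 5mM MgCl2, 0.01% Tween-20. After 60 minutes at room temperature, ATP was read by Kinase-Glo Plus luminescence end-point.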
RGS4 inhibitor: Inhibitors of Regulator of G Protein Signaling (RGS) 4: qHTS; Regulator of G-protein signaling 4 (Homo sapiens), P49798; Transcreener GDP fluorescence polarization, RGS4-accelerated GTP hydrolysis; Potency, µM (doses to about 114 µM), inactives show top-dose activity change, negative = inhibition, actives largely listed as inhibitors; actives 0.039% (n = 390,000); note: % is set by controls: 0 for no effect and ±100 for the full control effect; nearly all actives have a fitted effect of over 75% in size; some results filed as inactive show a strong effect at the top dose
Target sequence (P49798 whole entry, looked up): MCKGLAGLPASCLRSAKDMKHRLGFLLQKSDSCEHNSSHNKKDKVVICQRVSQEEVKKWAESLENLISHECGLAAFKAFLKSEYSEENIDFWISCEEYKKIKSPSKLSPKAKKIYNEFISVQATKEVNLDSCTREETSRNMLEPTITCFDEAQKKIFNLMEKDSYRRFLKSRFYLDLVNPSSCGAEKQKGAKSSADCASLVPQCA
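MLSMR compounds (23 nl, pin-transferred) preincubated 10 min at room temperature with a 500nM (2x) first reagent, then RGS4 at 900nM (2x) plus Transcreener GDP mix added; fluorescence polarization (620/688 nm) read before and after 90 min at 30 °C.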
TrxR1 inh: qHTS Assay for Inhibitors of Mammalian Selenoprotein Thioredoxin Reductase 1 (TrxR1): qHTS | recombinant rTrxR1, NADPH fluorescence consumption, selenite substrate | Potency, µM (doses to about 114 µM), for the others: at the top dose activity change, negative = inhibition, hits mostly inhibitors | actives 1% (n = 390,000); note: % is set by controls: 0 for no effect and ±100 for the full control effect; nearly all actives have a fitted effect of over 65% in size
Target sequence (O89049 whole entry, looked up): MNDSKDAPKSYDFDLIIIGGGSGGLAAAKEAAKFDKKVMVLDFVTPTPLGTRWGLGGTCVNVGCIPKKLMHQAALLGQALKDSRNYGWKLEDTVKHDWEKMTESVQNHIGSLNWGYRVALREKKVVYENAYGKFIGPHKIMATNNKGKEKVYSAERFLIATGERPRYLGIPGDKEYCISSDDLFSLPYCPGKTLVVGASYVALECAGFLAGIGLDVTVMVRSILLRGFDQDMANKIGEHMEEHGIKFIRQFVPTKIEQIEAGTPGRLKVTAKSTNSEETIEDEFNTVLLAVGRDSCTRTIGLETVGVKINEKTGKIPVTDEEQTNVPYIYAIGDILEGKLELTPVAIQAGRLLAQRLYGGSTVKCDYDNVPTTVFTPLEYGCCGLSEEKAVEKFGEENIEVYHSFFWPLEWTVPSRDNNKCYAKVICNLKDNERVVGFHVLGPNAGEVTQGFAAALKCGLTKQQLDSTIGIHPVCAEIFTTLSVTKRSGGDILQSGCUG
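Rat TrxR1 (90 nM in the dispensed reagent) was pre-reduced with 400 uM NADPH for 5 min at room temperature, then incubated with compound for 15 min. After 400 uM selenite was added, NADPH fluorescence (Ex 340/Em 450 nm) was followed for 8 min.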
ERG Ets-DNA blk: qHTS for Small Molecule Inhibitors of the ERG Ets/DNA interaction; actives 0.028% (n = 370,000); AID 624246, 2012; Transcriptional regulator ERG (Homo sapiens), P11308; Potency, µM (top dose mostly 76.9 µM), without a hit: at the top dose FP activity, negative = inhibition, hits mostly inhibitors; fluorescence polarization, His-ERG Ets domain / labelled DNA; active = well fitted inhibition curve with a large enough effect in the polarisation, with a control signal flat; inconclusive = small, poorly fitted or top-dose-only effect, or effect the other way, or a change in a side signal; inactive = no such curve, though single readings can be large or run the other way; the % refers to the polarisation;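 note: polarization taken with two DNA probes labelled with fluorescein and Texas red; % of control where 0% means no effect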
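His-tagged ERG Ets domain (1 uM in the protein solution; 300mM KCl, 50mM Tris-HCl, 1mM EDTA, 1mM DTT, pH 7.5) received compound, then a probe mix of 5 nM fluorescein-DNA and 100nM Texas-615-DNA. Fluorescence polarization was read for both dyes.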
Pin1 inhibitor: qHTS Assay to Find Inhibitors of Pin1; Potency, µM (series often up to 115 µM), without a hit: at the top dose activity, negative = inhibition, actives largely listed as inhibitors; actives 0.009% (n = 390,000); Peptidyl-prolyl cis-trans isomerase NIMA-interacting 1 (Homo sapiens), Q13526; Pin1 FP peptide displacement, HiFluor488, 10 min; active = well fitted inhibition curve with a large enough effect in the polarisation, with a control signal flat, not every such curve was filed as active; inconclusive = small, poorly fitted or top-dose-only effect, or effect the other way, or a change in a side signal; inactive = no such curve, though single readings can be large or run the other way; the % refers to the polarisation; note: % is set by controls: 0 for no effect and ±100 for the full control effect
Target sequence (Q13526 whole entry, looked up): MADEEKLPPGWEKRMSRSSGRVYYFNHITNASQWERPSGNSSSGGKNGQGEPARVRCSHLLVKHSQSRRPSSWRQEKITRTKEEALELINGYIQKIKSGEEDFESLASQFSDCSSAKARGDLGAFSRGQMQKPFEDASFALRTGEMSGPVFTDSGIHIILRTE
* marks the source's active call; other numbers are inactive results; i = inactive; ? = inconclusive; [ ] = dose if it differs, or a comment. Unless noted, calls come from the whole dose curve; as a rule, active = well fitted curve in the direction sought with a large enough effect; inconclusive = small, poorly fitted or top-dose-only effect, or another doubt; inactive = no such curve, though single readings can be large; an effect the other way counts as inactive or inconclusive. Potency is the fitted concentration of half-maximal effect.

Key to letters – A = GLS inh; B = ALOX12 inh; C = Tb PGK inh; D = RGS4 inhibitor; E = TrxR1 inh; F = ERG Ets-DNA blk; G = Pin1 inhibitor
1) CCOc1cc(CN2CCSCC2)ccc1O
  A: 12%; B: 1%; C: -6%; D: 16%; E: ?; F: -2%; G: -11%
2) CCC(Cn1nnc2ccccc2c1=O)NC(=O)Nc1ccc(C)cc1C (stereo unspecified)
  A: -10%; B: -6%; C: 8%; D: 1%; E: 0%; F: 4%; G: -11%
3) Cc1ccc(SCC(=O)Nc2nnc(-c3ccco3)o2)cc1
  A: -1%; B: -11%; C: -6%; D: -39%; E: 8%[57.1 µM]; F: 13%; G: -9%
4) O=C(O)c1ccc2nc(-c3cc4cc(F)ccc4oc3=O)[nH]c2c1
  A: -2%; B: -12%; C: -6%; D: -5%; E: 14%[57.1 µM]; F: -2%; G: -1%
5) O=S(=O)(Nc1ccc(-c2nc3cccnc3s2)cc1)c1cccs1
  A: 5%; B: -1%[57.4 µM]; C: 7%; D: 12%; E: 1%[57.1 µM]; F: -3%; G: ?
6) O=C(c1ccccc1)N1CCN(Cc2ccccc2C(F)(F)F)CC1
  A: 2%; B: ?; C: 0%; D: -8%; E: 22%[57.1 µM]; F: 10%; G: 0%
7) CCOC(=O)c1cc(C#N)c(Oc2ccccc2)nc1-c1ccccc1
  A: 8%; B: 0%; C: 1%; D: 15%; E: 8%[57.1 µM]; F: -6%; G: -4%
8) CC(C(=O)N1CCCC1)N(C)CC(=O)Nc1cccc(F)c1 (stereo unspecified)
  A: -5%; B: -25%; C: 1%; D: 6%; E: 4%; F: -12%; G: -1%
9) Cc1noc(C)c1CNCc1ccccc1
  A: -1%; B: 13%; C: -2%; D: 5%; E: -9%; F: -20%; G: -16%
10) CC(=O)CSc1nnc(C(F)(F)F)n1C
  A: -10%; B: 0%; C: i; D: -36%; E: -5%[57.1 µM]; F: -5%; G: -3%
11) Cc1ccc(CN2CCCC(C(=O)N3CCCC3)C2)cc1 (stereo unspecified)
  A: -6%; B: ?; C: -8%; D: -5%; E: 11%[57.1 µM]; F: 3%; G: -10%
12) Cn1c(-c2ccc(F)cc2)cnc1NCc1ccc(F)cc1F
  A: 9%; B: ?; C: 3%; D: -1%; E: 28%; F: -3%; G: 7%
13) C=CCc1ccc(OCCCCN2CC(C)OC(C)C2)c(OC)c1 (stereo unspecified)
  A: 20%; B: 0%; C: -6%; D: 3%; E: 34%[57.1 µM]; F: 11%; G: -11%
14) Cc1ccsc1C(=O)OCC(=O)Nc1nnc(-c2ccccc2)o1
  A: 2%; B: 5%; C: -2%; D: -2%; E: -20%; F: 19%; G: 3%
15) CCOC(=O)Cc1csc(SCc2cc(=O)oc3cc(O)ccc23)n1
  A: 20%; B: ?; C: 5%; D: -6%; E: -12%; F: 1%; G: 5%
16) C/C(=N\NC(=O)c1ccc([N+](=O)[O-])cc1)c1c(O)cc(C)oc1=O
  A: -9%; B: -4%; C: -6%; D: ?; E: 14%; F: -10%; G: -1%
17) CCOC(=O)N1CCN(CC(c2ccccc2)c2ccccc2)CC1
  A: -1%; B: ?; C: -12%; D: 20%; E: 7%; F: 5%; G: -11%
18) CCCCc1nn2c(=O)cc(COC(=O)c3ccc(NC(=O)c4cccs4)cc3)nc2s1
  A: -10%; B: -13%; C: -6%; D: -31%; E: -8%[57.1 µM]; F: 0%; G: -14%
19) O=C(CSc1ccc(-c2ccccn2)nn1)N1CCCCC1
  A: ?; B: -3%; C: 0%; D: 10%; E: 13%[57.1 µM]; F: 0%; G: 0%
20) COc1cccc(CC2(CO)CCCN(Cc3cnn(-c4ccccc4)c3)C2)c1 (stereo unspecified)
  A: -1%; B: -6%; C: i; D: -24%; E: 13%; F: 5%; G: 2%
21) C[C@H](NC(=O)c1nc[nH]c1C(=O)N[C@H](C)c1ccccc1)C(=O)OC(C)(C)C
  A: -3%; B: -7%; C: i; D: 5%; E: -2%; F: 1%; G: 0%
22) Cc1ccc2cccc(Oc3cnccn3)c2n1
  A: 2%; B: 2%; C: 4%; D: -25%; E: 7%; F: 0%; G: 0%
23) Cc1c(N=Cc2nc3ccccc3[nH]2)c(=O)n(-c2ccccc2)n1C
  A: 3%; B: 2%; C: -13%; D: 30%; E: -22%; F: 10%; G: -16%
24) Cc1ccc(OCCCCNC(C)(C)C)c([N+](=O)[O-])c1
  A: 2%; B: ?; C: 0%; D: 13%; E: -5%; F: 8%; G: 1%
25) Oc1ccccc1N1CCN(CC(O)COC2CCCc3ccccc32)CC1 (stereo unspecified)
  A: 15%; B: ?; C: 6%; D: 32%; E: 4%; F: -5%; G: -9%

Next section.
Key to letters – A = GLS inh; B = ALOX12 inh; C = Tb PGK inh; D = RGS4 inhibitor; E = TrxR1 inh; F = ERG Ets-DNA blk; G = Pin1 inhibitor
26) COc1ccccc1C(CC(=O)Nc1ccc(Cl)cc1)c1ccc(OC(C)C)cc1 (stereo unspecified)
  A: 0%; B: -17%; C: 0%; D: 10%; E: 13%; F: 1%; G: 10%
27) COc1ccc(NC(=O)COC(=O)C2CCN(S(=O)(=O)c3cccs3)CC2)cc1
  A: -3%; B: -1%; C: -1%; D: -3%; E: 17%; F: 6%; G: 4%
28) Cc1ccc(CN2CCN(Cc3ccco3)CC2)cc1
  A: 0%; B: -9%; C: -12%; D: 4%; E: 6%; F: -6%; G: -6%
29) N#CC(c1nc2ccccc2nc1N1CCCC1)S(=O)(=O)c1ccccc1 (stereo unspecified)
  A: 29%; B: ?; C: -9%; D: 11%; E: -19%; F: 4%; G: ?
30) COc1ccc(CN2CCN(C(=O)c3cccc(OC)c3OC)CC2)cc1OC
  A: 0%; B: -23%; C: -5%; D: -5%; E: 4%[57.1 µM]; F: 5%; G: 0%
31) C=CCN(CC=C)c1ncnc2[nH]ncc12
  A: 4%; B: 0%; C: i; D: -9%; E: 14%[57.1 µM]; F: 16%; G: 4%
32) Cc1ccc(S(=O)(=O)C(C#N)c2nc3ccccc3nc2N2CCCC2)cc1C (stereo unspecified)
  A: 1%; B: 1%; C: i; D: -24%; E: -5%; F: 9%; G: ?
33) CCc1ccccc1NC(=O)NC(CC)Cn1nnc2ccccc2c1=O (stereo unspecified)
  A: -3%; B: -1%; C: -6%; D: -8%; E: 7%; F: -6%; G: -4%

Some of the entries so far, bar-delimited:
item | compound | GLS inh | ALOX12 inh | Tb PGK inh | RGS4 inhibitor | TrxR1 inh | ERG Ets-DNA blk | Pin1 inhibitor
1 | CCOc1cc(CN2CCSCC2)ccc1O | 12% | 1% | -6% | 16% | ? | -2% | -11%
2 | CCC(Cn1nnc2ccccc2c1=O)NC(=O)Nc1ccc(C)cc1C (stereo unspecified) | -10% | -6% | 8% | 1% | 0% | 4% | -11%
3 | Cc1ccc(SCC(=O)Nc2nnc(-c3ccco3)o2)cc1 | -1% | -11% | -6% | -39% | 8%[57.1 µM] | 13% | -9%
4 | O=C(O)c1ccc2nc(-c3cc4cc(F)ccc4oc3=O)[nH]c2c1 | -2% | -12% | -6% | -5% | 14%[57.1 µM] | -2% | -1%
5 | O=S(=O)(Nc1ccc(-c2nc3cccnc3s2)cc1)c1cccs1 | 5% | -1%[57.4 µM] | 7% | 12% | 1%[57.1 µM] | -3% | ?
6 | O=C(c1ccccc1)N1CCN(Cc2ccccc2C(F)(F)F)CC1 | 2% | ? | 0% | -8% | 22%[57.1 µM] | 10% | 0%
7 | CCOC(=O)c1cc(C#N)c(Oc2ccccc2)nc1-c1ccccc1 | 8% | 0% | 1% | 15% | 8%[57.1 µM] | -6% | -4%
8 | CC(C(=O)N1CCCC1)N(C)CC(=O)Nc1cccc(F)c1 (stereo unspecified) | -5% | -25% | 1% | 6% | 4% | -12% | -1%
9 | Cc1noc(C)c1CNCc1ccccc1 | -1% | 13% | -2% | 5% | -9% | -20% | -16%
10 | CC(=O)CSc1nnc(C(F)(F)F)n1C | -10% | 0% | i | -36% | -5%[57.1 µM] | -5% | -3%
11 | Cc1ccc(CN2CCCC(C(=O)N3CCCC3)C2)cc1 (stereo unspecified) | -6% | ? | -8% | -5% | 11%[57.1 µM] | 3% | -10%

A portion of the library, so the mix of outcomes need not match the whole.
